Compound activity deposited in PubChem by National Center for Advancing Translational Sciences (NCATS).
StopGo reporter: High Throughput Screening for Foot and Mouth Disease Virus Antivirals; AID 1159524, 2015; Potency, µM (doses to about 57.9 µM), for the others: at the highest dose signal change, negative = less light; human cells with a luciferase reporter of 2A StopGo recoding; control for the full effect not named in the record; actives 1.2% (n = 410,000); active = well fitted falling curve with a large enough effect; inconclusive = small, poorly fitted or top-dose-only effect; inactive = no such curve, though single readings can be large or run the other way; tested in HEK293T cells; also: % is scaled to controls: 0 for no effect and ±100 for the full control effect; nearly all actives have a fitted effect of over 45% in size; luciferase light after 4 h
NS1 inh: qHTS Assay for Inhibitors of Influenza NS1 Protein Function; Potency, µM (titrated, usually from 46.1 µM), without a hit: at the highest dose activity, positive = more growth; actives 0.4% (n = 270,000); AID 2326, 2010; S. cerevisiae slowed by influenza A NS1, growth recovery by OD600; also: actives are rising curves; nearly all actives have a fitted effect of over 50% in size
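Compounds were scored for reversing the slow growth caused by influenza A NS1 in S. cerevisiae, measured by optical density at 600 nm. Assay medium contained 2% galactose at pH 6.0; NS1-free yeast of the same strain were the positive control.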
RE007 growth inh: qHTS Assay for Inhibitors of the HIV-1 protein Vpr. actives 0.21% (n = 360,000). S. pombe RE007 Vpr strain, BacTiter-Glo ATP luminescence, 24 h; control for the full effect not named in the record. Potency, µM (highest dose often 92.2 µM), inactives show at the top dose activity change, negative = less growth. AID 651644, 2012; active = well fitted falling curve with a large enough effect; inconclusive = small, poorly fitted or top-dose-only effect; inactive = no such curve, though single readings can be large or run the other way;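 also: % is scaled to controls: 0 for no effect and ±100 for the full control effect; nearly all actives have a fitted effect of over 50% in size; the assay follows cell death caused by Vpr and the record does not say whether a fall means rescue or toxicity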
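Fission yeast RE007 carrying one integrated HIV-1 vpr copy, seeded at OD 0.01 in PMG+AL medium with 23 nL pinned compound. Grown 24 h at 30 degrees; viability read by BacTiter-Glo luminescence after 5 min.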
Cruzain inh noDet: qHTS Assay for Promiscuous and Specific Inhibitors of Cruzain (without detergent); actives 2.3% (n = 200,000); purified cruzain, Z-FR-AMC fluorescence, no detergent; Potency, µM, inactives show max response, negative = inhibition, actives largely listed as inhibitors; Cruzipain (Trypanosoma cruzi), P25779; active = well fitted curve in the direction sought with a large enough effect; inconclusive = small, poorly fitted or top-dose-only effect, or another doubt; inactive = no such curve, though single readings can be large; an effect the other way counts as inactive or inconclusive;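 also: plate controls were enzyme without inhibitor for no effect and buffer without enzyme for full effect; nearly all actives have a fitted effect of over 40% in size; top concentration of the series not given in the record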
Target sequence (P25779 123-467 limits assumed): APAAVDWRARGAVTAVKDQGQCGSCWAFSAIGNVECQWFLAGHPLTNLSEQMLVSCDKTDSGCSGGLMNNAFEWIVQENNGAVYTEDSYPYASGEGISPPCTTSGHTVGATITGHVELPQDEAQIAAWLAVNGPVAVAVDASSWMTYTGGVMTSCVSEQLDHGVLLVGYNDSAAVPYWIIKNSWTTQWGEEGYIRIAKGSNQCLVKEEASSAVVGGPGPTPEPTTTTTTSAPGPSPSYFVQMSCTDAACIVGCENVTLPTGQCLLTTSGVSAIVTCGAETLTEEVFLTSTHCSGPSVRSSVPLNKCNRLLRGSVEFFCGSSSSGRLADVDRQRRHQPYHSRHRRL
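Purified cruzain at 1.5 nM, pre-incubated 15 min with compound at room temperature in 100 mM sodium acetate pH 5.5, 5 mM DTT, 0.00005% Triton X-100. Reaction started with 2 uM Z-FR-AMC; AMC fluorescence increase over 60 s gives rate.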
LASV entry inh: qHTS for Inhibitors of binding or entry into cells for Lassa Virus. actives 1.2% (n = 300,000). Lassa virus pseudotype entry inhibition, cell reporter; control for the full effect not named in the record. Potency, µM (doses to about 37.9 µM), without a hit: at the top dose activity change, negative = inhibition, actives largely listed as inhibitors. AID 540256, 2011; active means well fitted inhibition curve with a large enough effect; inconclusive means small, poorly fitted or top-dose-only effect, or effect the other way; inactive means flat fitted curve, though single readings scatter; tested in HEK293 cells; also: % is scaled to controls: 0 for no effect and ±100 for the full control effect; nearly all actives have a fitted effect of over 50% in size; luciferase read-out
Cruzain inh Det: qHTS Assay for Promiscuous and Specific Inhibitors of Cruzain (with detergent). Cruzipain (Trypanosoma cruzi), P25779. purified cruzain, Z-FR-AMC fluorescence, 0.01% Triton. Potency, µM, without a hit: max response, negative = inhibition, actives largely listed as inhibitors. actives 0.43% (n = 200,000). AID 1478, 2009; active = well fitted curve in the direction sought with a large enough effect; inconclusive = small, poorly fitted or top-dose-only effect, or another doubt; inactive = no such curve, though single readings can be large; an effect the other way counts as inactive or inconclusive;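 also: plate controls were neutral wells for no effect and buffer without enzyme for full effect; nearly all actives have a fitted effect of over 40% in size; top concentration of the series not given in the record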
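Z-FR-AMC hydrolysis (2 uM substrate) by cruzain (1.5 nM) monitored kinetically at ex 360/em 450 nm after 15 min room-temperature compound exposure; 0.01% Triton X-100, pH 5.5, 5 mM DTT.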
SARS PLpro yeast: qHTS of Yeast-based Assay for SARS-CoV PLP. S. cerevisiae expressing SARS-CoV PLpro, growth rescue; control for the full effect not named in the record. AID 485353, 2010. Potency, µM (titrated, usually from 32.9 µM), for the others: top-dose activity, positive = growth rescue. actives 0.19% (n = 330,000); also: 0% is about no effect; nearly all actives have a fitted effect of over 55% in size; growth read by luminescence after 48 h
MARV entry inh: qHTS for inhibitors of binding or entry into cells for Marburg Virus; Marburg virus pseudotyped entry inhibition, cell reporter; control for the full effect not named in the record; about a third of the inactives were read at about 46 µM; Potency, µM (top dose mostly 37.8 µM), for inactives: at the highest dose activity change, negative = inhibition, most hits filed as inhibitors; actives 1.8% (n = 300,000); active = well fitted inhibition curve with a large enough effect; inconclusive = small, poorly fitted or top-dose-only effect, or effect the other way; inactive = flat fitted curve, though single readings scatter; tested in HEK293 cells; about a fifth of its hits are not listed in these tables; also: % is scaled to controls: 0 for no effect and ±100 for the full control effect; luciferase read-out
Starred values were filed as active, the others as inactive; ? = inconclusive; . = no result given; & = joins results of further samples; ! = repeats disagree; [ ] = remark or other dose. Unless noted, calls follow the shape of the dose curve; as a rule, active means well fitted rising curve with a large enough effect; inconclusive means small, poorly fitted or top-dose-only effect; inactive means no such curve, though single readings can be large or run the other way. Potency is read from the fitted curve at half-maximal effect. This is a random part of the collection; 4.5% or so of the library scored in one or more.

SMILES	StopGo reporter	NS1 inh	RE007 growth inh	Cruzain inh noDet	LASV entry inh	Cruzain inh Det	SARS PLpro yeast	MARV entry inh
CC(C)CN(C(=O)c1cccc([N+](=O)[O-])c1)c1c(N)n(CC(C)C)c(=O)[nH]c1=O	-6%	?	11%	.	.	.	4%	-11%[46.1 µM]
CC(=O)N1CCN(C(=O)c2oc3ccccc3c2C)CC1	-20%	-1%	13%	.	.	.	4%	.
CC(C)(C(N)=O)N1CCN(c2ncc(C(F)(F)F)cc2Cl)CC1	0%	0%	-3%	-4%	?	-0.4%	-8%	-23%
O=C1COc2ccc(C(=O)CCl)cc2N1	25µM*	0%	6%	.	-18%[46.1 µM]	.	16%	?
N#Cc1nc(COc2ccccc2Cl)oc1N1CCCC1	-1%	-8%	22%	.	2%	.	-2%	9%[46.1 µM]
Cc1cc(C)c2c(n1)nn1c(N3CCN(c4ccccc4)CC3)cc(C)nc21	-29%	-2%	-17%	-10%	-6%	1.5%	11%	-12%
CCOC(=O)CN1C(=O)CSc2ccc(S(=O)(=O)N3CCCC3)cc21	10%	-4%	-16%	.	0%	.	-2%	-14%[46.1 µM]
O=C(Nc1ccc(Cl)cc1Cl)NC1CCCC1	13%	.	-17%	.	-18%[46.1 µM]	.	0%	17%[46.1 µM]
CCOC(=O)c1sc(N2C(=O)c3oc4cc(C)c(C)cc4c(=O)c3C2c2cccc(O)c2)nc1C (centres undefined)	2%	.	.	3%	21%[46.1 µM]	-2.1%	.	?
CC(=O)c1ccc(OC(=O)c2cccs2)cc1	30%[activator]	2%	-10%	3%	9%	-0.8%	-1%	-5%

Next part, starting with the last four of the part before.
SMILES	StopGo reporter	NS1 inh	RE007 growth inh	Cruzain inh noDet	LASV entry inh	Cruzain inh Det	SARS PLpro yeast	MARV entry inh
CCOC(=O)CN1C(=O)CSc2ccc(S(=O)(=O)N3CCCC3)cc21	10%	-4%	-16%	.	0%	.	-2%	-14%[46.1 µM]
O=C(Nc1ccc(Cl)cc1Cl)NC1CCCC1	13%	.	-17%	.	-18%[46.1 µM]	.	0%	17%[46.1 µM]
CCOC(=O)c1sc(N2C(=O)c3oc4cc(C)c(C)cc4c(=O)c3C2c2cccc(O)c2)nc1C (centres undefined)	2%	.	.	3%	21%[46.1 µM]	-2.1%	.	?
CC(=O)c1ccc(OC(=O)c2cccs2)cc1	30%[activator]	2%	-10%	3%	9%	-0.8%	-1%	-5%
O=C(CN1C(=O)NC2(CCCC2)C1=O)Nc1cc(Cl)ccc1N1CCOCC1	0%	.	4%	.	0%	.	-4%	?
Cc1cc2c(cc1S(=O)(=O)Nc1cccc(F)c1C)NC(=O)CO2	64%[activator]	.	-7%	.	?	.	4%	?
c1ccc(-c2nc(Sc3ncnc4c3cnn4-c3ccccc3)n[nH]2)cc1	.	-9%	.	-3%	.	-2.5%	-8%	5%
O=C1COc2ccc(C(=O)COC(=O)c3ccccc3F)cc2N1	12%	.	15%	.	-6%	.	-1%	-2%
CS(=O)(=O)c1ccc(Cl)c(NC(=O)c2cc(=O)[nH]c3ccc(S(=O)(=O)N4CCOCC4)cc23)c1	-10%	.	22%	.	-8%[46.1 µM]	.	-13%	14%
Cc1ccc(Nc2c(-c3ccc(C)o3)nc3cnccn23)cc1	7%	-13%	7.9µM*!	0%	.	-6.4%	-1%	.
COC(=O)C1CCN(C(=O)NC2CC(=O)N(c3ccc4c(c3)OCCO4)C2)CC1 (centres undefined)	-12%	.	4%	.	6%	.	3%	27%
CCOc1ccc(NC(=O)CCSc2ccc(C)cc2)cc1	-12%	-5%	-9%	-8%	-1%	-6.0%	-42%	?
CN(CC(=O)Nc1ccc(S(N)(=O)=O)cc1)C1CCCCC1	7%	-10%	1%	.	2%[46.1 µM]	.	4%	7%[46.1 µM]
COc1ccc(Cc2noc(CN3CCN(Cc4cccc(Cl)c4)CC3)n2)cc1OC	?	4%	-6%	.	?	.	-1%	?
CC(C)=CC(=O)OCc1cc([N+](=O)[O-])cc2c1OCOC2	66%[activator]	.	6%	.	.	.	-3%	?
COC(=O)C1=C(CN2CCN(C)CC2)NC(=O)NC1c1cc(C)ccc1C (centres undefined)	-4%	-3%	-20%	-2%	-6%	4.9%	0%	?
COCCn1c(SCC(=O)NCc2cccs2)nnc1-c1ccc(OC)cc1	.	-13%	0%	-2%	0%	8.7%	0%	14%
CCn1nc(C)c2c(-c3ccccc3)cc(=O)n(C(C)C(=O)NCc3ccc(C)cc3)c21 (centres undefined)	-15%	.	.	-8%	?	11%	.	.
CN(CC(=O)Nc1ccccc1Cl)C(=O)CSc1nc2ccccc2s1	40%[activator]	-42%	.	21%	-15%	-3.1%	8%	6%
O=C1OC2(CCCC2)OC(=O)C1=Cc1c[nH]c2ccccc12	9%	-8%	-6%	.	-7%[46.1 µM]	.	0%	0%[46.1 µM]
CCOC(=O)CC(NC(=O)Cn1nnc(-c2ccccc2Cl)n1)c1ccc(OC)cc1 (centres undefined)	-8%&1%	.	8%	1%	-18%&-6%[46.1 µM]	-4.5%	-1%	-8%&-8%[46.1 µM]
COc1ccc(C2C(C(=O)c3ccco3)=C(O)C(=O)N2CCN2CCOCC2)cc1 (centres undefined)	-1%	-1%	-13%	.	17%	.	10%	12%[46.1 µM]
CC12CCC(=O)C=C1CCC1C2C(O)CC2(C)C(O)CCC12 (centres undefined)	-4%	.	-12%	.	-9%[46.1 µM]	.	.	-1%[46.1 µM]
O=C(NCc1ccccc1Cl)c1ccc2nc(Cc3ccccc3)oc2c1	6%	.	.	-4%	11%[46.1 µM]	-8.4%	.	.
COc1cccc(NC(=O)c2cc(S(=O)(=O)N3CCc4ccccc43)cn2C)c1	0%	5%	3%	.	.	.	0%	.
NS(=O)(=O)c1ccc(NC(=O)CN2CCCCC2)cc1	5%	-3%	0%	-2%	6%	7.0%	5%	29%
Cc1nc(NC(=O)/C=C/c2ccc(Cl)cc2Cl)sc1C(=O)N(C)C	-4%	2%	3%	-13%	14%	-1.6%	-25%	?
N=c1c2c(-c3ccccc3)c(-c3ccccc3)n(Cc3ccccc3)c2ncn1CCCn1ccnc1	-26%	12%	40%	-7%	?	3.5%	4%	?
Cc1ccc(-n2nnnc2Sc2nc([N+](=O)[O-])nn2C)cc1C	0%	-1%	-10%	-4%	-22%	2.3%	-11%	-20%
O=C(CCSCc1cnn(-c2ccccc2)c1-n1cccc1)NCc1ccccc1Cl	-17%	.	.	-7%	-2%[46.1 µM]	-6.6%	.	-6%[46.1 µM]
COC(=O)[C@H](C)NC(=O)Nc1cc(OC)ccc1OC	11%	-21%	-6%	3%	-3%	0.6%	1%	7%
COCCn1c(Cc2ccccc2)nnc1SCC(=O)Nc1ccccc1	24%	0%	6%	.	8%[46.1 µM]	.	0%	-5%[46.1 µM]
NC(=S)N=Nc1c(O)n(Cc2ccccc2)c2ccccc12	-15%	11%	-9%	-19%	-9%	?	5%	-17%
CC(=O)Nc1ccc(SCC(=O)NC(=O)c2ccccc2Br)cc1	28%	.	9%	.	0%	.	2%	11%
CCCC1=Nc2cc(C(=O)N3CCC(C)CC3)ccc2Sc2ccc(C)cc21	8%	.	.	1%	-8%[46.1 µM]	-2.7%	.	-4%[46.1 µM]
O=C(CCCn1c(=O)c2sccc2n(CC(=O)NCC2CCCO2)c1=O)NCc1ccco1 (centres undefined)	-5%	.	-3%	.	6%[46.1 µM]	.	-4%	3%[46.1 µM]
O=C(Nc1nc2ccc(F)cc2s1)c1cccc(S(=O)(=O)N2CCc3ccccc32)c1	0%	13%	5%	7.9µM*	16%	-1.2%	3.2µM*	?
Cn1c(=O)c2c(nc(SCC(=O)Nc3ccc(F)cc3F)n2Cc2ccccc2)n(C)c1=O	10%	.	.	-6%	14%[46.1 µM]	5.8%	.	-2%[46.1 µM]
COc1ccc(N2CCN(C(=O)CSc3ncnc4c3cnn4-c3ccccc3C)CC2)cc1	?	-6%	10%	-5%	1%	3.9%	4%	16%&16%
Cc1ccccc1NC(=O)Nc1ccccn1	59%[activator]	-8%	5%	.	.	.	-2%	.
Cc1ccc(-c2nnn(CC(=O)N(c3ccccc3F)C(C(=O)NC3CCCC3)c3ccncc3)n2)o1 (centres undefined)	17%	8%	3%	.	-3%[46.1 µM]	.	0%	?
CCCCc1cc(=O)oc2cc(C)cc(OCC(=O)NCCN3CCOCC3)c12	-11%	4%	-3%	.	.	.	-9%	.
O=C(OCCOc1ccc(Br)cc1)c1ccc(Cl)c(S(=O)(=O)N2CCOCC2)c1	?	.	-12%	.	-30%	.	1%	-10%[46.1 µM]
CC(N)Cc1cn(Cc2ccccc2)c2ccccc12 (centres undefined)	?	7%	3%	.	-24%	.	-5%	?

Three entries out of the list, sorted by length of the SMILES, rising:
SMILES	StopGo reporter	NS1 inh	RE007 growth inh	Cruzain inh noDet	LASV entry inh	Cruzain inh Det	SARS PLpro yeast	MARV entry inh
CC(N)Cc1cn(Cc2ccccc2)c2ccccc12 (centres undefined)	?	7%	3%	.	-24%	.	-5%	?
CCCCc1cc(=O)oc2cc(C)cc(OCC(=O)NCCN3CCOCC3)c12	-11%	4%	-3%	.	.	.	-9%	.
O=C(Nc1nc2ccc(F)cc2s1)c1cccc(S(=O)(=O)N2CCc3ccccc32)c1	0%	13%	5%	7.9µM*	16%	-1.2%	3.2µM*	?
